Source: PubChem (several laboratories)
A1 inh – caspase 3/7 activation in MEF A1-2A-BIM cells, primary screen, A1 inhibitor project, cell-based, luminescence, HTS. actives 0.066% (n = 330,000). Caspase-Glo 3/7 luminescence, 3 h; percent of clofoctol response, vehicle zero. caspase activation, % (concentration not given with the values);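 active = over half of replicate activation scores above 10%, or exactly half above 10 with the replicate mean above 10; inconclusive = replicate mean below 10 yet half the replicates above 10; inactive = over half of replicates below 10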;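 also: wells of about 30 µL received 50 nL stock; many hits fall short of the cut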
B2AR ag – beta2AR agonists driving receptor internalization, primary screen, cell-based, FAP fluorogen, flow cytometry | Beta-2 adrenergic receptor (Homo sapiens), P07550 | Am2.2-beta2AR cells; reference of the scale not given here | response, % (concentration not given with the values) | actives 0.43% (n = 340,000) | AID 504454, 2011;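 active = response above a set limit, near 3 SD of response in nonfluorescent compounds, cut at about 42% in these data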;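 also: stock transfer was 100 nL into about 11 µL; a reference agonist was the positive control; negative values mostly stem from fluorescent compounds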
HNF4A DNA FP – change in binding of human HNF4A to DNA, primary screen, biochemical, fluorescence polarization, FITC-DNA | AID 1224865, 2016 | activity change, % at 10 µM | Hepatocyte nuclear factor 4-alpha (Homo sapiens), P41235 | 1 h | actives 0.3% (n = 360,000); in the data active = activity change above about 30%, passing the limit was not always enough;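 also: controls were the assay level and a saturating level of protein; the project sought stronger binding though the title names inhibitors; some compounds called inactive have numbers as strong as hits; positive values seem to mean higher polarization but the record does not say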
Vif A3G – inhibitors of Vif binding to APOBEC3G peptide, primary screen, biochemical, TR-FRET, GST-Vif 1-94, biotin-A3G peptide, dose response retest (AID 1117319). TR-FRET GST-Vif / biotin-A3G peptide binding; higher % means a stronger effect; test concentration not given here; strong numbers were not always called active. one-dose inhibition, %; IC50 in µM for titrated hits. Virion infectivity factor (Human immunodeficiency virus type 1 group M subtype B (isolate …. actives 0.57% (n = 260,000);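 active = above the screen mean plus three standard deviations and confirmed in dose response; inconclusive = results disagree or hit not tested in dose response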;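 also: Vif residues 1-94 fused to GST binding biotinylated APOBEC3G peptide 110-148; 0% = full assay without inhibitor and 100% = GST in place of GST-Vif; retest series ran down from 100 µM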
UCH37 DUB inh – inhibitors of human UCH37 deubiquitinase, primary screen, biochemical, Ub-AMC cleavage, fluorescence. Ubiquitin carboxyl-terminal hydrolase isozyme L5 (Homo sapiens), Q9Y5K5. purified proteasome/UCH37. inhibition, % (test concentration not listed). actives 0.33% (n = 330,000). AID 588478, 2011;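 active = mean of two replicates above 20%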;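 also: 0% = compound-free wells with enzyme and 100% = wells lacking proteasome; stock transfer was 100 nL into about 20 µL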
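Material: human UCH37 enzyme supplied as purified proteasome complex. Measure: % inhibition of Ub-AMC cleavage fluorescence. Medium: pH 7.4 Tris-HCl (50 mM) with ovalbumin, ATP-MgCl2, DTT. Times: 30 min preincubation with enzyme, 25 min cleavage at room temperature. Detection: AMC fluorescence intensity at 355/460 nm.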
E coli growth – E. coli growth inhibition, primary screen, OD600; Escherichia coli growth, 23 h; active compounds read low; OD600 absorbance (concentration not given with the values); actives 0.21% (n = 330,000);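 active = OD600 absorbance below the run mean of sample wells minus 3.6 SD, in any replicate, cut at about 0.56 in these data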;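 also: stock transfer was 300 nL into about 60 µL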
LANA-H2A inh – blockers of LANA interaction with H2A/H2B – biochemical, FP readout, HTS, primary screen; AID 2629, 2010; actives 0.6% (n = 320,000); cell-free LANA-H2A/H2B peptide, fluorescence polarization; inhibition, % (no concentration beside the values); in the data active = inhibition mostly above about 10%, no sharp cut-off; inactive = mostly below about 6.7%;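 also: stock transfer was 7.5 nL into about 10 µL; 0% = median of vehicle wells and 100% = median of positive control wells; one replicate is shown; the record names a cut of 25% in any replicate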
Target sequence (Q9QR71 whole entry, looked up): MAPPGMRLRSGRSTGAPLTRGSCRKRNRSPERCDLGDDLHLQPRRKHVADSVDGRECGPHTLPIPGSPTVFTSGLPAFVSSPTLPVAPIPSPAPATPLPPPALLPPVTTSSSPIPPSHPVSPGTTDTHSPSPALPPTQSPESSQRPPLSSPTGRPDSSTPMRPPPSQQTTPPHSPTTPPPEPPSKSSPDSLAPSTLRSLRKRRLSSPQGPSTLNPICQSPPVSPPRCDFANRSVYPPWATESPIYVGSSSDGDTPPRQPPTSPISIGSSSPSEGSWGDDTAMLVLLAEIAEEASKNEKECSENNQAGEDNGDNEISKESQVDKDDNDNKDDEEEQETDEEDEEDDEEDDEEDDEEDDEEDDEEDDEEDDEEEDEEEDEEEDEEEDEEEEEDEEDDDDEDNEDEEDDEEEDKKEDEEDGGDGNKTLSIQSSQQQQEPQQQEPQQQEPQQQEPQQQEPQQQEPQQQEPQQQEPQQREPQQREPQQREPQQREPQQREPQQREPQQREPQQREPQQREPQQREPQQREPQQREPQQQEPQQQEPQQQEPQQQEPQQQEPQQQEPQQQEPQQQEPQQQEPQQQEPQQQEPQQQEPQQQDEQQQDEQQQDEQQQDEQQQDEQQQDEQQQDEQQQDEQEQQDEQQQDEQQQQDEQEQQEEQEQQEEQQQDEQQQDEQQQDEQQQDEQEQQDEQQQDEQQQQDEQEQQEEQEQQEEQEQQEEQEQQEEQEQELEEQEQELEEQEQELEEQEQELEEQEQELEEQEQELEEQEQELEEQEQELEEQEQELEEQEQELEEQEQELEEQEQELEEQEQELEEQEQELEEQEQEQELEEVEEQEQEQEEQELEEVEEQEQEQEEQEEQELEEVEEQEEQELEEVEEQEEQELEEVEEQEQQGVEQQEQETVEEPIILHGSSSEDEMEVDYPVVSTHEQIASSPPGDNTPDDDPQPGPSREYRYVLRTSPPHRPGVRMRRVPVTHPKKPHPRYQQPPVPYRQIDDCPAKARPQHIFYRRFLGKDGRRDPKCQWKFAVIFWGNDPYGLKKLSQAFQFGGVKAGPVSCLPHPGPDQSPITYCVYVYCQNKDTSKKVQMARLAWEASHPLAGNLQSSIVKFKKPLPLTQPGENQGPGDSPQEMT
The depositor's hits bear a star; i = inactive; ? = inconclusive; . = not tested or not shown; & = joins results of further samples.

smiles	A1 inh	UCH37 DUB inh	E coli growth	HNF4A DNA FP	Vif A3G	LANA-H2A inh	B2AR ag
Cc1cc(=O)oc2cc(OCC(=O)N3c4ccccc4CC3C)ccc12 (stereo not given)	0.5	-10.1	0.69	-1.1	-15.2%	-0.6	22.0
COc1ccc(C(C(=O)NC(C)C)N(C(=O)CCC(=O)Nc2nccs2)c2ccccc2F)cc1 (stereo not given)	-0.1	0.6	0.695	-1.0	.	-3.0	-4.1
O=C(COc1ccc(Cl)cc1)Nc1cccc(-c2ccc(N3CCOCC3)nn2)c1	-8.3	0.8	0.613	4.8	-16.1%	-0.2	20.5
CC(C)COC(=O)n1c(SCC(=O)N(C)C)nc2ccccc21	-1.2	1.6	0.757	3.5	-2.2%	-2.5	-9.6
C[C@@H](C(=O)Nc1ccc2ccccc2c1)[C@@H]1C[C@@]1(C)[C@@H](NC(=O)c1ccccc1)c1ccccc1	0.1	1.9	.	6.8	-0.4%	-0.3	2.0
CCOc1cc(CNCCN(C)C)c(Cl)cc1OCC(=O)NCCc1ccccc1	-0.1	-3.6	0.704	1.5	-3.8%	9.3	9.8
O=C(CO)C(O)C(O)C(O)CO (stereo not given)	-0.3	0.3	0.642	2.2	.	1.0	-157.9
COc1ccccc1Nc1cc(N2CCOCC2)c2nonc2c1[N+](=O)[O-]	0.7	7.9	0.71	3.8	8.2%	0.3	3.6
COc1ccc(C(=O)N2CC3(CC(c4cccc(NC(=O)CC(c5ccccc5)c5ccccc5)c4)=NO3)C[C@H]2C(N)=O)cc1 (stereo not given in full)	-0.1	-0.9	.	3.5	10.2%	-8.8	-5.1
COc1cc(OC)cc(C(=O)Nc2ccccc2C(=O)NCc2cccnc2)c1	0.5	1.1	0.6	2.2	.	-0.5	-8.0
Cn1c(C(=O)Nc2ccc3c(c2)OCO3)cc2sccc21	-4.7	1.9	0.606	8.4	5.3%	2.6	2.1
COC(=O)CN(c1nc(C)c(Br)c(OC)n1)S(=O)(=O)c1ccc(C)cc1	0.3	4.6	0.681	-1.9	-3.8%	-2.0	12.1
O=C(Nc1cccc(S(=O)(=O)Nc2ccccc2Cl)c1)c1ccc(N2CCCC2)c([N+](=O)[O-])c1	-0.4	2.3	0.708	-1.9	.	1.3	-9.7
N#C/C(=C\c1cn(CC(=O)N2CCCCC2)c2ccccc12)C(=O)NCc1ccc2c(c1)OCO2	-0.5	-4.2	0.701	3.4	1.4%	0.1	5.9
Cc1nn(C)c2c(=O)c(=O)c2n(C)[nH]1	-0.4	8.4	0.697	5.7	?	-3.0	3.2
O=c1c2ccccc2[nH]c(=S)n1CCCn1ccnc1	-1.8	4.2	0.664	0.3	-2.9%	-0.1	-5.8
Cc1cccn2c(=O)nc(SCC(=O)N3CCN(c4ccccc4)CC3)nc12	-0.8	3.2	0.684	-2.0	4.0%	-2.0	-3.0
Cc1ccc(C(=O)NC(=S)N2CC(C)OC(C)C2)cc1[N+](=O)[O-] (stereo not given)	0.2	3.0	0.716	-1.9	-8.3%	1.2	2.7
CCCn1cc(CN2CCCC(C(=O)c3cccc(OC(C)C)c3)C2)c(C)n1 (stereo not given)	0.5	-6.5	0.686	-0.6	1.1%	1.6	0.5
C/C(=N\NC(=O)c1cc(-c2ccc(O)cc2)nc2ccccc12)c1cccnc1	1.0	.	.	-2.9	.	-2.1	-7.8
O=C1NC(=S)SC1=Cc1ccccc1Br	.	12.3	0.605	-0.3	0.9%	.	10.5
O=C(Nc1ccc2[nH]ncc2c1)c1ccccc1Cl	1.8	2.6	0.658	0.3	-3.7%	-2.7	1.9
CC(C)c1ccc(-c2nnc(SCC(=O)NC3CC3)n2C)cc1	-1.1	2.1	0.727	0.6	-5.3%	-5.2	-6.6
Nc1nc(N)c(Cc2ccc(Cl)cc2Cl)c(N)n1	-0.4	.	.	-1.6	-1.7%	32.0*	2.0
COc1ccc(-c2cc(C(F)(F)F)c3c(N)c(C(=O)NCCSC)sc3n2)cc1	0.7	-18.3	0.699	7.2	.	5.7	6.3
Fc1cccc(Nc2nc3ccccc3n3cnnc23)c1	-0.2	-3.3	0.696	9.0	-5.3%	2.2	-25.8
CCC(=O)c1ccc(OCC(=O)Nc2ccc3nc(C)sc3c2)cc1	0.7	4.3	0.716	-0.4	-4.1%	1.3	-12.5
CCN(CC)c1ccc(/C=c2\sc3nnc(-c4ccccc4Cl)n3c2=O)cc1	-0.7	.	.	87.0	-1.0%	-2.8	.
Oc1ccc(N=Nc2ccc3c(c2)OCCO3)c(O)c1	-7.8	3.4	0.714	8.3	6.5%	4.0	7.5
O=C(Nc1ccc(S(=O)(=O)Nc2nccs2)cc1)c1ccc(=O)[nH]c1	1.3	.	.	-1.7	8.2%	1.1	3.3
CCCc1[nH][nH]c(=O)c1C(c1ccc(Br)cc1)C(C#N)C#N (stereo not given)	-0.1	5.4	0.686	-0.6	16.4%	i	-5.7
CCc1c(C)nc2ncnn2c1N1CCCC(C(=O)NCCc2ccccc2)C1 (stereo not given)	0.3	0.8	0.737	2.5	1.5%	-1.6	-16.4
CCN(CC(=O)Nc1ccccc1C(F)(F)F)C(=O)c1ccc2[nH]c3c(c2c1)CC(C)CC3 (stereo not given)	-0.3	-0.4	0.617	-1.9	3.3%	1.1	2.5
NC1=NN(c2c(Cl)cc(Cl)cc2Cl)C(=O)C1	.	.	.	8.0	-7.6%	.	-3.4
CCCC(=O)NC(c1ccccc1Cl)c1ccc2cccnc2c1O (stereo not given)	-0.2	.	.	-0.6	5.8%	0.8	1.7
O=C(NCc1cccnc1)C1CC(c2ccccc2O)=NO1 (stereo not given)	0.9	2.2	0.594	-2.0	.	-0.9	-9.2
O=S(=O)(c1ccccc1)c1nc(-c2ccccc2)oc1NCc1cccnc1	0.0	3.1	0.69	2.0	-1.4%	-6.9	-2.4
Cc1cc(=O)n2c(-c3ccc(Cl)cc3)csc2n1	0.8	1.9	0.704	2.2	26.5%	1.3	-0.1
O=C(COC(=O)c1ccccn1)Nc1ccc2c(c1)OCO2	-1.1	7.2	0.714	5.8	6.9%	-0.8	5.3
O=C(O)c1ccc(N2C(=O)CC(N3CCN(c4ccc(Cl)cc4)CC3)C2=O)cc1 (stereo not given)	0.3	3.3	0.651	2.2	.	0.2	-2.8
N#Cc1c(NC(=O)CCC(=O)O)sc2c1CCCC2	-0.3	-0.2	0.692	1.0	-7.7%	4.2	11.2
CC(=O)Nc1cccc(N)c1	0.2	0.8	0.632	2.9	.	27.5*	-3.6
CCCCN1C(=S)SC(C)(C)C1/[N+]([O-])=C/c1ccc(S(=O)(=O)NC)cc1 (stereo not given)	1.2	3.5	0.73	2.6	.	0.1	-0.1
OC1CCCN(CC(O)COC(c2ccccc2)c2ccccc2)C1 (stereo not given)	0.3	2.2	0.718	-0.9	-4.1%	-8.2	-3.7
Cc1nc(C)c(Oc2ccc(Cl)cc2Cl)c(=O)[nH]1	0.9	5.1	0.689	4.7	-1.9%	5.0	-0.5
O=C(Nc1ccc2c(c1)OCO2)C(c1ccc(Cl)cc1)N1CCC2(CC1)OCCO2 (stereo not given)	0.7	3.2	0.754	-1.5	0.6%	0.4	17.8
Cc1ccc(N=C2NC(=O)S/C2=C\c2ccco2)cc1	-0.5	3.5	0.704	3.0	.	3.3	2.9
O=C1N[C@@H](Cc2ccccc2)C(=O)N2CCC[C@@H]12	-0.3	3.1	0.609	0.8	.	-2.2	1.6
CCOc1ccc(N=Nc2ccc(O)c3ncccc23)cc1	-0.6	0.8	0.661	2.5	.	-0.6	22.7
COc1ccc2[nH]c(=O)c(CN(CCCN(C)C)C(=O)Nc3ccc(F)cc3)cc2c1	-0.1	-17.8	0.655	2.2	1.6%	8.4	9.8

The list continues.
smiles	A1 inh	UCH37 DUB inh	E coli growth	HNF4A DNA FP	Vif A3G	LANA-H2A inh	B2AR ag
COC(=O)c1ccc(N2CCN(S(=O)(=O)c3ccc(Br)cc3)CC2)c([N+](=O)[O-])c1	-0.4	1.1	0.733	2.2	2.5%	2.8	1.4
COc1ccc(-c2nc(=S)[nH][nH]2)cc1	1.4	1.8	0.674	0.6	0.4%	-2.3	-6.7
O=C(Nc1ccc(NC(=O)C2CC2)nc1)c1cccnc1	-0.3	3.7	0.699	-1.6	-1.2%	1.4	-12.6
CCOC(=O)CCCNC(=O)COC(=O)c1cc(Br)c(Br)s1	1.9	4.8	0.672	0.7	-2.0%	2.2	1.0
O=C(O)c1ccccc1/C=N/n1c(C2CCCCC2)n[nH]c1=S	-0.7	.	.	3.4	-7.3%	1.1	-4.0
Cc1cc(Br)ccc1S(=O)(=O)n1ccnc1C	-0.5	3.0	0.695	1.3	-1.9%	2.1	-0.3
O=C(CCC(=O)c1ccc(Br)cc1)Nc1ccc(F)cc1	-0.7	0.5	0.696	-0.1	.	1.1	-8.8
COc1ccc(C)cc1NC(=O)CCNC(=O)c1ccco1	-0.2	1.3	0.692	-3.8	.	-1.6	3.1
Cc1cccc(/C=C/c2onc(C)c2S(=O)(=O)N2CCC(C(=O)NC(C)(C)C)CC2)c1	0.2	-126.0	0.755	4.5	-2.5%	1.8	0.1
O=C(c1ccc(-c2ccccc2)cc1)N1CCN(c2ccccc2F)CC1	-0.1	0.8	0.633	0.0	.	-1.4	17.6
Cc1ccc(S(=O)(=O)N2CCC(=O)N(CCOC(=O)Nc3cccc(Cl)c3)CC2)cc1	-0.5	2.2	0.655	-6.0	?	-4.5	4.4
COC(=O)c1[nH]c2cccc(OC)c2c1NC(=O)CN(C)CC1OCCO1	0.2	-33.0	0.67	2.0	-1.0%	0.2	10.1
COc1cc2cc(C(=O)N3CCN(Cc4ccc5c(c4)OCO5)CC3)c(=O)oc2cc1OC	0.5	i	0.66	3.7	-6.2%	-0.9	0.7
COc1cc2c(cc1OC)C1C(C(=O)Nc3ccccc3N3CCN(C)CC3)c3ccccc3C(=O)N1CC2 (stereo not given)	0.8	1.9	0.679	-1.2	19.5%	5.4	-5.8
N#Cc1c(SCC(=O)Nc2cccc(F)c2)sc2c(O)cc(=O)[nH]c12	0.0	5.3	0.68	-15.9	.	-4.2	20.1
CC(OC(=O)CCN=C1NS(=O)(=O)c2ccccc21)C(=O)NC1CCCCC1C (stereo not given)	0.0	4.2	0.684	-4.4	-2.9%	0.2	-0.3
COc1ccc(-c2c(C(F)(F)F)nn(C)c2NC(=O)c2cccnc2)cc1	1.0	2.7	0.67	1.6	.	-1.4	1.3
COc1ccc(OC)c(C(=O)CSc2nc3c(c(=O)n(C)c(=O)n3C)n2C(C)C)c1	.	4.1	0.682	0.4	-1.3%&-3.9%	.	7.7
Cc1cc(C)nc(Nc2ncc(O)n2-c2ccc(C)c(C)c2)n1	?	0.3	0.683	6.2	-4.6%	-0.3	3.2
